MgrA-DNA mod: modulators of Staphylococcus aureus MgrA DNA binding. fluorescence polarization. inhibition, %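 (about 10 µg/mL by stock and volumes)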. 84,000 tested, 0.13% active. AID 602314;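 active = above 50% in either of two replicates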;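 also: 0% = protein plus DNA without compound and 100% = DNA alone without protein; higher means less MgrA bound to DNA so lower polarization; one replicate is shown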
Sa helicase inh: S. aureus DNA helicase inhibition. purified S. aureus helicase, fluorescence unwinding assay; about half of the hits fall short of the stated cut. inhibition, %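 (tested at about 80 µM)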. 120,000 tested, 0.05% active. AID 485395;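 active = both duplicates at 50% or more, or one of them with a favoured structure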;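 also: 0% = mean of negative control wells and 100% = mean of positive control wells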
Active calls of the source: *; . = not tested or not shown. This is a subset. The share of hits here may be higher or lower than overall.

SMILES	MgrA-DNA mod	Sa helicase inh
CCOC(=O)C1CCCN(S(=O)(=O)c2ccc(C)cc2)C1 (stereo not drawn)	-0.5	12
CCC(Oc1ccccc1)C(=O)NCc1ccc2c(c1)OCO2 (stereo not drawn)	.	14
Cc1cccc(NC(=O)CN(CC2CCCO2)C(=O)c2cc(-c3ccco3)nc3ccccc23)c1C (stereo not drawn)	.	4
CC(=O)N(C)c1cccc(-c2ccc3nnc(C)n3n2)c1	-3.3	.
C=CCc1c(C)nc(SCC(C)C)[nH]c1=O	5.0	15
CC(C)c1nnc(NC(=O)/C=C/c2ccc3c(c2)OCO3)s1	1.2	0
O=c1c2ccccc2nc(-c2cccs2)n1NCc1ccccc1F	3.0	9
CC1(C)C(=O)C2(CCCCC2)C(=O)OC1c1ccc(Br)o1 (stereo not drawn)	.	13
CCc1ccc(N2C(=O)C3C(C(=O)OC)=NN(C(C)=O)C3C2=O)cc1 (stereo not drawn)	-1.7	3
O=C1/C(=C/c2ccccc2)N=C2CCCCCN12	.	12
Brc1ccc(C2=CSc3ccccc3N2)cc1	6.1	.
CC(=O)N(CCC(Cc1ccccc1)c1ccc2c(c1)OCO2)Cc1ccc2c(c1)OCO2 (stereo not drawn)	-2.3	2
O=C(CSc1nc2cc(Cl)ccc2s1)NC1CCCC1	-1.3	-9
O=C(CSc1n[nH]c(=O)[nH]c1=O)N/N=C/c1ccccn1	.	25
CC(=O)OC[C@H](OC(C)=O)[C@H](OC(C)=O)[C@@H](CNC(=O)c1ccc(C)c(C)c1)OC(C)=O	-1.0	.
CN1N=C(C(F)(F)F)CC1=O	.	19
O=C(/C=C\Nc1ccccn1)c1ccc2c(c1)OCO2	1.1	-4
CC(C)N(Cc1ccc(N(C)C)cc1)C(=S)Nc1ccc(Cl)cc1	0.1	.
O=C(NCc1ccc2c(c1)OCO2)NCC1CCCC(CNC(=O)NCc2ccc3c(c2)OCO3)C1 (stereo not drawn)	.	-1
Cc1cccc(NC(=O)CN(C)S(=O)(=O)c2cccs2)c1C	1.4	-21
CCOc1cccc2cc(C(C)NCc3ccc(C)o3)oc12 (stereo not drawn)	.	-2
O=c1[nH]c(=O)n(-c2ccc(Cl)cc2)c(O)c1C=Nc1ccc(N2CCOCC2)cc1	0.5	2
CCCCn1c(SCC(=O)NC(C)(C#N)C(C)C)nnc1C(CC)N(C)C (stereo not drawn)	.	-2
O=C(COc1ccccc1)Nc1ncn[nH]1	-2.2	7
N#C/C=C(\c1ccc(F)cc1)N1CCCCC1	.	-13

Complete entries, quoted from the list. Values in the order: MgrA-DNA mod	Sa helicase inh
CC(C)c1nnc(NC(=O)/C=C/c2ccc3c(c2)OCO3)s1 is listed as 1.2	0
CCOC(=O)C1CCCN(S(=O)(=O)c2ccc(C)cc2)C1 (stereo not drawn) is listed as -0.5	12
C=CCc1c(C)nc(SCC(C)C)[nH]c1=O is listed as 5.0	15

(listing goes on)
SMILES	MgrA-DNA mod	Sa helicase inh
O=C(SCc1cccs1)c1csc(C2COc3ccccc3O2)n1 (stereo not drawn)	0.2	.
CC(C)C(=O)N1CCN(c2ccccc2N)CC1	2.2	-20
N#Cc1ccc(NC(=O)C2CC(c3ccc(F)cc3)=NO2)cc1 (stereo not drawn)	.	-7
COc1ccccc1N1CCSC1C(N)=O (stereo not drawn)	-2.0	7
COc1ccc(C2C(C(=O)OC3CCCCC3)=C(C)NC3=C2C(=O)CCC3)c(OC)c1OC (stereo not drawn)	.	-3
O=C(NN=C1CCCC1)C1CCN(S(=O)(=O)c2cccs2)CC1	.	-16
CC(C)(C)NC(=O)CCSc1nnc(-c2ccccc2)o1	-3.5	6
O=C1CCCC2=C1C(c1ccccc1C(F)(F)F)c1c(ccc3ncccc13)N2 (stereo not drawn)	-0.3	-3
CCC(c1nnc(SC(C)C(=O)NCc2ccc3c(c2)OCO3)n1Cc1ccccc1)N(C)C (stereo not drawn)	.	-4
CCN1CCN(C(=O)c2c[nH]n3c(=O)c(Cc4cccc(C)c4)c(C)nc23)CC1	.	14
Cc1csc2nc(CSc3nnc(-c4ccccc4Cl)n3C3CCCC3)cc(=O)n12	.	7
COC(=O)c1c(NS(=O)(=O)c2cccs2)sc2c1CCCC2	1.6	33
CC(C)C(=O)Nc1ccccc1OC(F)F	.	0
Cn1c(=O)c(C2=NS(=O)(=O)c3ccccc3N2)c(O)c2ccccc21	-1.4	5
Cc1cc(C)nc(SCC(=O)OCC(=O)N2CCc3ccccc32)n1	.	-1
CCOc1ccc(OCC)c(S(=O)(=O)N2CCCCC2)c1	.	11
Oc1cccc(NC(=S)Nc2cccnc2)c1	-0.8	-1
CC(C)(C)C(=O)C(Oc1ccc(Cl)cc1)n1cnnc1 (stereo not drawn)	-1.1	4
COc1ccc(-c2cn(-c3ccc(C)cc3C)c(=S)[nH]2)cc1OC	2.1	4
N/C(CN1CCSCC1)=N\OC(=O)c1cccs1	.	-8
CC(SCc1cn2cc(Cl)ccc2n1)C(=O)O (stereo not drawn)	.	-13
C=CCN(CC=C)C(=O)c1cccs1	-0.4	11
NC(=O)c1ccc2c(c1)S(=O)(=O)c1ccccc1C2=O	3.1	-13
Cc1cc(C)cc(OCC(=O)NC2CCCCC2C)c1 (stereo not drawn)	.	-9
O=C(O)CCCn1c(=O)c2cc3c(=O)n(CCCC(=O)O)c(=O)c3cc2c1=O	1.3	2

Rewritten bar-delimited: entries from further up
compound | MgrA-DNA mod | Sa helicase inh
N#C/C=C(\c1ccc(F)cc1)N1CCCCC1 | . | -13
O=C(SCc1cccs1)c1csc(C2COc3ccccc3O2)n1 (stereo not drawn) | 0.2 | .
CC(C)C(=O)N1CCN(c2ccccc2N)CC1 | 2.2 | -20

(cont.)
SMILES	MgrA-DNA mod	Sa helicase inh
Cc1cc(C)c(C#N)c(SCCSc2nc(C)cc(C)c2C#N)n1	-0.1	.
CC(C)(CC(=O)O)CC(=O)Nc1cc(Cl)ccc1Cl	3.4	.
Cn1c(C(=O)N2CCC(C(=O)NC3CCCc4ccccc43)CC2)cc2sccc21 (stereo not drawn)	.	17
O=C(Cn1cnnn1)NC1CCCc2ccccc21 (stereo not drawn)	.	8
O=C1OC(c2ccc(F)cc2)c2ccccc21 (stereo not drawn)	.	7
O=C1c2cccc3cc([N+](=O)[O-])cc(c23)C(=O)N1Cc1ccco1	0.0	.
Fc1ccc(Oc2ccnc3cc(Cl)ccc23)cc1	-2.5	.
CCCCN1C=C(C(=O)OC)C(c2cccc(OC)c2OC)C(C(=O)OC)=C1	0.4	2
CN(C)S(=O)(=O)c1ccc2c(c1)C(CC(=O)O)OC2=O (stereo not drawn)	2.2	-6
N/C(Cc1nc2ccccc2s1)=N\O	2.0	.
CCn1c(O)c(N=NS(=O)(=O)c2ccc(C)cc2)c2cc(Cl)ccc21	0.3	13
CCOC(=O)C1CCN(C(=O)c2sc(-c3ccccc3)nc2C)CC1	0.7	.
CN=c1scc(-c2ccc(OC(F)F)cc2)n1/N=C/c1ccc(O)cc1	.	6
CCN1C/C(=C\c2ccccc2)C(=O)/C(=C/c2ccccc2)C1	-5.0	7
O=C(Nc1ncn[nH]1)Nc1cccc2ccccc12	-1.9	10
COc1ccc(-c2cc(C(F)(F)F)n3ncc(C(=O)Nc4cccc(O)c4)c3n2)cc1	4.2	8
CCOC(=O)C(C#N)C1(O)C(=O)c2ccccc2C1=O (stereo not drawn)	7.6	2
Cc1nc(NCc2ccc3c(c2)OCO3)nc2c1C(=O)c1ccccc1-2	.	-44
Cc1ccc(Oc2ncccc2NC(=O)CSc2ccccn2)c2c1CCC2	-0.8	.
CCCCOC(=O)c1ccc(O)cc1	5.0	.
COc1ccc(S(=O)(=O)NCc2ccco2)cc1OC1CCCC1	3.8	.
O=c1c(Oc2ccccc2)c(C(F)(F)F)oc2c(O)c(O)ccc12	3.0	22
CCCN(CCC)C(=O)Cn1c(SCc2cccc(Cl)c2)nc2ccncc21	-2.3	13
COC(=O)C1=C(C)N(c2ccccc2)/C(=C/c2cccc3ccccc23)C1=O	13	-10
N#Cc1c(N(C(=O)/C=C/c2ccco2)C(=O)/C=C/c2ccco2)oc(-c2ccco2)c1-c1ccco1	.	-16
The listing continues:
SMILES	MgrA-DNA mod	Sa helicase inh
COc1ccccc1N1CCN(C(=O)c2cccc(Oc3ccccc3)c2)CC1	4.8	-17
Cc1ccc(C)c(NC(=O)CSc2nnc3cc(C)c4ccccc4n23)c1	-1.2	.
CCc1ccc(NC(=O)c2ccc(F)c(S(=O)(=O)NCC3COc4ccccc4O3)c2)cc1 (stereo not drawn)	-1.1	-2
Cc1ccc2nc(SCC(=O)N3CCc4ccccc43)nc(=O)n2c1	.	9
COc1ccc(C2=C3NN=C(N)N3NN2)cc1	-3.2	12
O=C(O)CCn1nc(-c2cccs2)oc1=O	.	-4
CCc1ccc(C2c3c(-c4ccccc4O)n[nH]c3C(=O)N2CCO)cc1 (stereo not drawn)	.	10
C1=C(c2cc3ccccc3o2)SC2=NCCN12	.	-15
COC(=O)c1sc(C(=O)OC)c(O)c1O	.	19
O=C(O)CCC(=O)Nc1ccc(OC(F)(F)F)cc1	-2.0	.
O=C(c1c[nH]c2ccccc2c1=O)N(Cc1ccccc1)Cc1ccccc1	-0.8	-8
CCOC(=O)c1ccccc1NC(=O)c1ccncc1	1.4	5
O=C(Nc1ccccc1)c1ccco1	-0.1	-1
COc1ccc(SCc2nsc(Sc3ccc(OC)cc3)n2)cc1	-1.4	.
CCC(C)(C)n1nnnc1C(c1ccc(Cl)cc1)N1CCN(c2nc3ccccc3s2)CC1 (stereo not drawn)	0.9	-4
CCc1ccc2c(c1)c1nnc(SCC(=O)c3ccc(OC)cc3)nc1n2C	-1.1	6
CCN(CC)S(=O)(=O)c1ccc2c(c1)CCCN2C(=O)OC	2.1	11
Cc1cccc(C)c1NC(=S)N1CCCC1=O	-1.6	.
CC(=O)N1CCN(c2ccccc2NC(=S)NC(=O)CC(C)C)CC1	6.0	7
C=CCN1C(=O)NC(=O)/C(=C/c2ccccc2OCc2ccc(F)cc2)C1=O	2.8	2
CC(=O)OC(C(=O)NCc1ccc2c(c1)OCO2)c1ccccc1Cl (stereo not drawn)	-2.6	4
CCOC(=O)c1c(N)sc(=S)c2c1CCC2	1.9	6
O=C(CSCc1cccc2ccccc12)Nc1ccc(C(F)(F)F)cc1	5.9	.
C/S(=N\S(=O)(=O)c1ccc(Cl)cc1)c1ccccc1 (stereo not drawn)	1.1	.
O=C(CSc1nc(N2CCOCC2)nc(N2CCOCC2)n1)c1ccccc1	1.8	-8

Given as labelled records: 4 of the compounds above
Cc1cccc(C)c1NC(=S)N1CCCC1=O
  MgrA-DNA mod: -1.6
  Sa helicase inh: .

CC(=O)N1CCN(c2ccccc2NC(=S)NC(=O)CC(C)C)CC1
  MgrA-DNA mod: 6.0
  Sa helicase inh: 7

C=CCN1C(=O)NC(=O)/C(=C/c2ccccc2OCc2ccc(F)cc2)C1=O
  MgrA-DNA mod: 2.8
  Sa helicase inh: 2

CC(=O)OC(C(=O)NCc1ccc2c(c1)OCO2)c1ccccc1Cl (stereo not drawn)
  MgrA-DNA mod: -2.6
  Sa helicase inh: 4

More structures
SMILES	MgrA-DNA mod	Sa helicase inh
O=C(c1ccc2c(c1)N(Cc1ccccc1)C(=O)c1ccccc1S2=O)N1CCN(C(=O)c2ccco2)CC1 (stereo not drawn)	.	9
COc1ccc(C2NC(=O)NC(C)=C2C(=O)c2ccccc2)cc1OC (stereo not drawn)	-0.1	6
CCOC(=O)N1CCC(NC(=O)c2ccc(Cn3c(=O)[nH]c4cc(OCC)c(OCC)cc4c3=O)cc2)CC1	.	8
COc1cccc(NS(=O)(=O)c2ccc3c(c2)CC(C)N3C(=O)C2CC2)c1 (stereo not drawn)	.	-28
CCOC(=O)c1cc2cc(Cl)ccc2o1	-0.3	.
CCOc1ccc2nc(N3CCC(C(=O)NCC4CCCO4)CC3)sc2c1 (stereo not drawn)	.	7
COc1ccc(-c2cc(C(F)(F)F)nc(SCC(=O)N(C)Cc3cn(C)nc3C)n2)cc1OC	-2.7	11
O=C(N/N=C/c1ccc[nH]1)c1cccc(Cl)c1	.	-42
Cc1nn(-c2ccccc2)nc1C(=O)NC(=O)N1CC(C)OC(C)C1 (stereo not drawn)	-0.7	.
N#CCc1ccc(N=Cc2cc(Br)ccc2O)cc1	0.7	.
Cc1ccc2nc(Cl)c3cc(C(=O)NCCN4CCN(C)CC4)sc3c2c1	11	27
COc1ccc(C(=O)NNC(=O)C2C3C=CC(C3)C2C(=O)O)cc1 (stereo not drawn)	-0.1	.
O=C(O)CSC(=S)N1CCCC1	0.1	.
C=CC(=O)NC1(CCC)CCCCC1	1.6	-6
O=C(N/N=C/c1c(Cl)cccc1Cl)c1sc2ccccc2c1Cl	1.6	.
O=C(NC(=O)N1CCOCC1)c1ccc(S(=O)(=O)N2CCOCC2)cc1	2.2	.
Cc1cc(C)n(C(=O)CNC(=O)c2cccs2)n1	1.9	-4
CCOc1ccc(CNC(=O)C2CCCN2S(=O)(=O)c2ccc3c(c2)CCCC(=O)N3)cc1 (stereo not drawn)	.	21
COc1ccc(CCNS(=O)(=O)c2ccc(C)cc2)cc1OC	3.0	-6
CCOc1ccccc1-c1noc(-c2cccc(OC)c2)n1	-0.7	10
Cc1noc(C)c1CSc1nc(C)c(C)n1C1CCCCC1	.	-8
CC1CCN(Cc2nc(-c3cc(C(F)(F)F)cc(C(F)(F)F)c3)no2)CC1	-0.5	.
O=S(=O)(NCCSCc1ccco1)c1cc(C(F)(F)F)ccc1Cl	-2.3	.
COc1ccc(N=Cc2ccc(-c3ccc(F)cc3)o2)cc1	.	14
CC(C)(C)P(=Nc1ccc(Br)cc1)(N1CCOCC1)N1CCOCC1	.	-7

Screens: PubChem, ICCB-Longwood Screening Facility, Harvard Medical School
